NS1 function inh = qHTS Assay for Inhibitors of Influenza NS1 Protein Function; 270,000 compounds, 0.4% hits; S. cerevisiae slowed by influenza A NS1, growth recovery by OD600; Potency, µM (doses to about 46.1 µM), inactives show at the top dose activity, positive = more growth; active means well fitted rising curve with a large enough effect; inconclusive means small, poorly fitted or top-dose-only effect; inactive means no such curve, though single readings can be large or run the other way; also: nearly all actives have a fitted effect of over 50% in size
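Read-out: OD600 growth recovery of NS1-expressing budding yeast. Cells grown overnight at 30C in -URA glucose medium, washed, resuspended and diluted 1:100 in 2% galactose assay medium, pH 6.0. Same strain lacking NS1 served as positive control.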
RE007 growth inh = qHTS Assay for Inhibitors of the HIV-1 protein Vpr | S. pombe RE007 Vpr strain, BacTiter-Glo ATP luminescence, 24 h; control for the full effect not named in the record | Potency, µM (highest dose often 92.2 µM), for the others: at the top dose activity change, negative = less growth | 360,000 compounds, 0.21% hits | AID 651644, 2012; active = well fitted falling curve with a large enough effect; inconclusive = small, poorly fitted or top-dose-only effect; inactive = no such curve, though single readings can be large or run the other way;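 also: % is scaled to controls: 0 for no effect and ±100 for the full control effect; nearly all actives have a fitted effect of over 50% in size; the assay follows cell death caused by Vpr and the record does not say whether a fall means rescue or toxicity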
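Fission yeast RE007 carrying one integrated HIV-1 vpr copy, seeded at OD 0.01 in PMG+AL medium with 23 nL pinned compound. Grown 24 h at 30 degrees; viability read by BacTiter-Glo luminescence after 5 min.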
2A StopGo = High Throughput Screening for Foot and Mouth Disease Virus Antivirals; human cells with a luciferase reporter of 2A StopGo recoding; control for the full effect not named in the record; Potency, µM (titrated, usually from 57.9 µM), inactives show at the top dose signal change, negative = less light; 410,000 compounds, 1.2% hits; AID 1159524, 2015; active = well fitted falling curve with a large enough effect; inconclusive = small, poorly fitted or top-dose-only effect; inactive = no such curve, though single readings can be large or run the other way; tested in HEK293T cells; also: % is scaled to controls: 0 for no effect and ±100 for the full control effect; nearly all actives have a fitted effect of over 45% in size; luciferase light after 4 h
Cruzain inh noDet = qHTS Assay for Promiscuous and Specific Inhibitors of Cruzain (without detergent); Cruzipain (Trypanosoma cruzi), P25779; 200,000 compounds, 2.3% hits; Potency, µM, inactives show max response, negative = inhibition, actives largely listed as inhibitors; AID 1476, 2009; purified cruzain, Z-FR-AMC fluorescence, no detergent;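 also: plate controls were enzyme without inhibitor for no effect and buffer without enzyme for full effect; nearly all actives have a fitted effect of over 40% in size; top concentration of the series not given in the record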
Target sequence (P25779 123-467 limits assumed): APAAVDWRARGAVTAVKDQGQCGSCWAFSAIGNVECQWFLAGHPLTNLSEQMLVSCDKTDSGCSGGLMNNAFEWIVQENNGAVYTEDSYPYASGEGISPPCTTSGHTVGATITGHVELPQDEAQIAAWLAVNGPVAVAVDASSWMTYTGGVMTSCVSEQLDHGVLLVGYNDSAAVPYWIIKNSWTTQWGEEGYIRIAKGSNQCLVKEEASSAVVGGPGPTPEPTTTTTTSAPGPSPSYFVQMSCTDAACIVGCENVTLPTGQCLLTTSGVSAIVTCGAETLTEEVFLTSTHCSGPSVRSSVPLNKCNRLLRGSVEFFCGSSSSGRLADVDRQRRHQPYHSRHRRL
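Purified cruzain at 1.5 nM, pre-incubated 15 min with compound at room temperature in 100 mM sodium acetate pH 5.5, 5 mM DTT, 0.00005% Triton X-100. Reaction started with 2 uM Z-FR-AMC; AMC fluorescence increase over 60 s gives rate.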
Cruzain inh Det = qHTS Assay for Promiscuous and Specific Inhibitors of Cruzain (with detergent). Cruzipain (Trypanosoma cruzi), P25779. purified cruzain, Z-FR-AMC fluorescence, 0.01% Triton. Potency, µM, for the others: max response, negative = inhibition, most hits filed as inhibitors. 200,000 compounds, 0.43% hits. AID 1478, 2009;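 also: plate controls were neutral wells for no effect and buffer without enzyme for full effect; nearly all actives have a fitted effect of over 40% in size; top concentration of the series not given in the record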
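Compounds were screened in titration against cruzain (1.5 nM) with 0.01% Triton X-100 to counter colloidal aggregation. Activity was the AMC fluorescence increase over 60 s after adding 2 uM Z-FR-AMC at pH 5.5.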
LASV entry inh = qHTS for Inhibitors of binding or entry into cells for Lassa Virus | Lassa virus pseudotype entry inhibition, cell reporter; control for the full effect not named in the record | Potency, µM (titrated, usually from 37.9 µM), for inactives: at the highest dose activity change, negative = inhibition, usual class: inhibitors | 300,000 compounds, 1.2% hits | AID 540256, 2011; active means well fitted inhibition curve with a large enough effect; inconclusive means small, poorly fitted or top-dose-only effect, or effect the other way; inactive means flat fitted curve, though single readings scatter; tested in HEK293 cells; also: % is scaled to controls: 0 for no effect and ±100 for the full control effect; nearly all actives have a fitted effect of over 50% in size; luciferase read-out
SARS PLpro yeast = qHTS of Yeast-based Assay for SARS-CoV PLP | S. cerevisiae expressing SARS-CoV PLpro, growth rescue; control for the full effect not named in the record | Potency, µM (doses to about 32.9 µM), inactives show top-dose activity, positive = growth rescue | 330,000 compounds, 0.19% hits | AID 485353, 2010; active means well fitted rising curve with a large enough effect; inconclusive means small, poorly fitted or top-dose-only effect; inactive means no such curve, though single readings can be large or run the other way; also: 0% is about no effect; nearly all actives have a fitted effect of over 55% in size; growth read by luminescence after 48 h
Marburg entry inh = qHTS for inhibitors of binding or entry into cells for Marburg Virus; Marburg virus pseudotyped entry inhibition, cell reporter; control for the full effect not named in the record; about a third of the inactives were read at about 46 µM; AID 540276, 2011; 300,000 compounds, 1.8% hits; Potency, µM (titrated, usually from 37.8 µM), for the others: at the top dose activity change, negative = inhibition, hits mostly inhibitors; active = well fitted inhibition curve with a large enough effect; inconclusive = small, poorly fitted or top-dose-only effect, or effect the other way; inactive = flat fitted curve, though single readings scatter; tested in HEK293 cells; about a fifth of its hits are not listed in these tables; also: % is scaled to controls: 0 for no effect and ±100 for the full control effect; luciferase read-out
* hit, by the source's call; ? = inconclusive; nt = not tested or not shown; [ ] = another dose, or the depositor's remark. Unless noted, calls follow the shape of the dose curve; as a rule, active = well fitted curve in the direction sought with a large enough effect; inconclusive = small, poorly fitted or top-dose-only effect, or another doubt; inactive = no such curve, though single readings can be large; an effect the other way counts as inactive or inconclusive. Potency is read from the fitted curve at half-maximal effect.

Values run as follows: 2A StopGo | LASV entry inh | Marburg entry inh | Cruzain inh noDet | RE007 growth inh | NS1 function inh | SARS PLpro yeast | Cruzain inh Det
COc1ccc2c(=O)c3c(=O)n(Cc4ccco4)c(-c4ccco4)nc3oc2c1
  13% | 12% | 1% | 3% | 8% | -7% | -2% | -11%
CCOc1ccc(N(CC(=O)N2CCOCC2)S(=O)(=O)c2ccc(F)cc2)cc1
  0% | -24% | -2% | nt | -18% | -11% | 4% | nt
O=S(=O)(c1cccc2nsnc12)N1CCCC1
  8% | 19% | 22% | 1% | 13% | -56% | -1% | 0.7%
Cc1ccnc(NS(=O)(=O)c2ccc(NS(=O)(=O)c3ccccc3)cc2)n1
  -11% | -10% | 14% | -2% | 14% | 10% | -15% | -2.4%
O=C(c1ccccc1)c1ccc(N=Nc2c(O)[nH]c(=O)[nH]c2=O)cc1
  10% | -13% | 0% | nt | 2% | 11% | -1% | nt
Cn1c(N)c(C(=O)COC(=O)CNC(=O)c2ccccc2F)c(=O)n(C)c1=O
  -7% | 17% | ? | nt | -1% | nt | -3% | nt
CC(=O)Nc1nc(-c2ccc(Cl)cc2)nc(C)c1C(C)=O
  22% | 7% | 0% | -3% | 18% | ? | -4% | 4.8%
CN(C)S(=O)(=O)n1cc(/C=C(\NC(=O)c2ccccc2F)C(=O)NCCCN2CCOCC2)c2ccccc21
  -11% | nt | nt | nt | 12% | -6% | -3% | nt
CCCCC(CCCC)=N/N=C/c1c(O)n(CC)c2cc(C3=NNC(=O)CC3)ccc12
  -8% | -7% | ? | ? | 0% | 4% | -20% | -5.0%
CN1CCN(C(=O)/C(=C\c2cccs2)NC(=O)c2ccco2)CC1
  -5% | 0% | -10% | -12% | 2% | 20% | 16% | -6.1%
COc1ccccc1-c1cn(-c2ccccc2)c(=S)[nH]1
  13% | nt | nt | nt | -2% | -7% | 1% | nt
COc1ccc(Br)cc1S(=O)(=O)Nc1ccc(Cl)cn1
  91%[activator] | -2% | -1% | nt | 2% | 7% | 4% | nt
CCOC(=O)c1cn(-c2ccccc2CO)c2c(F)c(F)c(F)cc2c1=O
  -18% | -5% | -13% | 1% | 5% | -8% | 8% | -1.6%
CC1CCC(C(=O)NC(C(=O)OCC(=O)c2ccccc2)C(C)C)CC1 (stereo not drawn)
  ? | -10%[46.1 µM] | -6%[46.1 µM] | ? | nt | nt | nt | 16µM*
CCOC(=O)c1cnc2ccc(C)cc2c1OCc1cc(F)cc(F)c1
  7% | ? | -14%[46.1 µM] | 3% | 9% | -1% | 10% | -2.8%
COc1ccc(C2C(C(=O)Nc3ccc(C)cc3C)=C(C)Nc3nc4ccccc4n32)c(OC)c1 (stereo not drawn)
  -20% | 1%[46.1 µM] | -18%[46.1 µM] | -2% | nt | nt | nt | -21%
CCCOc1ccc(C2c3c(oc4ccc(F)cc4c3=O)C(=O)N2CCc2ccc(OC)cc2)cc1 (stereo not drawn)
  -10% | ? | -20%[46.1 µM] | 0% | nt | nt | nt | -0.6%
Cc1cc(C)c(NC(=O)CN2CCCCCC2)c(C)c1
  37%[activator] | nt | nt | nt | 1% | 3% | 1% | nt
COc1cc2c(cc1OC)CN(C(=O)c1cccc([N+](=O)[O-])c1)CC2
  -14% | -7% | 0% | nt | -2% | -2% | 0% | nt
O=C(COC(=O)COc1ccc(Nc2ccccc2)cc1)NCc1ccco1
  -17% | 11% | 0% | 0% | -7% | -47% | -1% | -6.0%
CC(C[N+](C)(C)C)OC(=O)C1(c2ccccc2)CCCC1 (stereo not drawn)
  -3% | nt | nt | nt | 4% | -6% | 0% | nt
Cc1ccc(N2C(=O)CC2(C#N)c2ccc(OCc3ccccc3)cc2)cc1 (stereo not drawn)
  18% | -25% | ? | -18% | 8% | 16% | -10% | 2.3%
CCOc1ccc(C2Oc3nc(SC)nnc3-c3ccccc3N2C(C)=O)cc1OC (stereo not drawn)
  0% | nt | nt | 15% | -12% | 5% | -4% | -4.1%
CCOc1ccc(NC(=O)C(=O)NCC(c2cccnc2)N2CCc3ccccc32)cc1 (stereo not drawn)
  11µM* | -3%[46.1 µM] | nt | -7% | nt | nt | nt | -1.2%
CC(C)(C)OC(=O)CN1C(=O)NC(Cc2c[nH]c3ccccc23)C1=O (stereo not drawn)
  -23% | nt | nt | nt | -2% | 1% | -1% | nt
FC(F)(F)c1cccc(Cc2noc(CN3C[C@@H]4CCC[C@H]3C4)n2)c1
  -6% | 20%[46.1 µM] | -14%[46.1 µM] | nt | -11% | -2% | 0% | nt
c1ccc(CN(CCN2CCOCC2)Cc2ccccc2)cc1
  -10% | 6%[46.1 µM] | ? | nt | -10% | nt | nt | nt
Cc1cc(C)cc(NC(=O)C(NCC2CCCO2)c2ccccc2)c1 (stereo not drawn)
  0% | 3% | 23% | 19% | -6% | 7% | 7% | 4.1%
CC(=C/c1ccccc1)/C=N/n1c(-c2ccco2)n[nH]c1=S
  -16% | -1% | 5% | -8% | -15%[3.69 µM] | -107% | -32% | -13%
C=CCNC(=O)C1CCN(S(=O)(=O)c2ccccc2)CC1
  2% | 12% | 15% | 3% | 19% | 0% | -3% | -7.4%
CCOC(=O)N1CCN(Cc2nc3c(c(=O)n(C)c(=O)n3C)n2Cc2cc(C)ccc2C)CC1
  nt | nt | nt | ? | nt | -49% | 4% | 2.3%
Cc1nn(-c2ccccc2)c(C)c1/C=N/n1c(-c2ccccc2Br)n[nH]c1=S
  -10% | 13µM* | ? | nt | 13% | 14% | 0% | nt
O=C(COC(=O)C1CCN(c2ccc(C(F)(F)F)cn2)CC1)c1ccc(F)cc1
  9% | -13%[46.1 µM] | 7% | nt | -9% | nt | 2% | nt
CC1CCCCC1NC(=O)C1CCN(S(=O)(=O)N2CCOCC2)CC1 (stereo not drawn)
  11% | -1% | 12% | -7% | -4% | -5% | 3% | 0.8%
Nc1ccc2c(C(F)(F)F)cc(=O)oc2c1
  -8% | 5% | -5%[46.1 µM] | 14% | -8% | -6% | -2% | -3.8%
COc1ccc(CCNC(=O)C2CCC(=O)N(CCc3ccc(OC)cc3)C2)cc1 (stereo not drawn)
  -12% | nt | nt | nt | 14% | -3% | -2% | nt
CN(CC(=O)NCc1ccncc1)S(=O)(=O)c1ccc2ccccc2c1
  -14% | ? | -5%[46.1 µM] | nt | -6% | 2% | -2% | nt
CC(C)(C)c1ccc(C(=O)Nc2ccccc2C(=O)NCCN2CCOCC2)cc1
  29% | nt | nt | nt | -12% | -16% | -15% | nt
Nc1nc(Cl)cc(Oc2ccccc2F)n1
  2% | 4% | 2% | nt | 7% | -6% | -5% | nt
Cc1cc(NC(=O)COC(=O)C2CCN(S(=O)(=O)c3ccc(Cl)cc3)CC2)no1
  4% | -16% | ? | 14% | -1% | 0% | 10% | 7.6%
NC(=O)C1(N2CCCCC2)CCN(C(=S)Nc2ccc(F)c(Cl)c2)CC1
  44%[activator] | nt | nt | nt | 9% | 5% | 0% | nt
COc1ccc(NC(=O)C2C3C=CC4(O3)C2C(=O)N(CCCN2CCCCC2)C4C(=O)NC2CCCC(C)C2C)cc1 (stereo not drawn)
  -10% | -34%[46.1 µM] | -25%[46.1 µM] | nt | -9% | -19% | -1% | nt
NC(=O)CSc1nnc(-c2cccs2)n1-c1ccccc1
  -2% | 13% | 28% | -3% | 20% | -4% | -6% | -5.4%
COc1cccc(/C=N/n2c(COc3ccccc3)n[nH]c2=S)c1O
  -3% | nt | nt | nt | -8% | 6% | 1% | nt
N#Cc1c(NC(=O)CSc2nc(N)cc(=O)[nH]2)sc2c1CCCC2
  ? | ? | 10µM* | nt | -4% | 1% | 0% | nt
O=C(c1ccco1)n1nc(-c2cccnc2)nc1NCc1ccco1
  16% | 8% | 20%[46.1 µM] | nt | -6% | nt | -1% | nt
CCOc1ccccc1CNC(=O)CCc1c(C)nn(-c2ccc(N3CCOCC3)nn2)c1C
  -2% | -18%[46.1 µM] | nt | -13% | nt | nt | nt | 0.2%
CC1=NN(C(=O)c2ccc(C)cc2)C(O)(C(F)(F)OC(F)(F)F)C1 (stereo not drawn)
  -19% | 22% | -28% | 6% | 11% | -2% | -5% | 6.1%
COc1cccc(/C=N/NC(=O)c2c(C)nc3ccc(Cl)cn23)c1OC
  -16% | nt | nt | nt | -10% | -2% | 1% | nt
